Screening data as filed in PubChem.
KCNQ2 enhance – potentiators of rat KCNQ2 potassium channel. 310,000 tested, 0.54% active. O88943. AID 2239. CHO-K1 KCNQ2, FluxOR thallium flux fluorescence; active compounds read high. B-score at 10 µM;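 active = fluorescence ratio B-score at least 3 SD of library B-scores, with initial fluorescence B-score within 3 SD, cut at about 5.3 in these data; same plate scores as AID 2156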;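 also: B-score of peak minus minimum over baseline fluorescence ratio after K+ and Tl+ stimulus; positive B-score means potentiation of KCNQ2 with more thallium influx and brighter signal; only the inactives scoring about 0 or higher are listed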
Target sequence (O88943 whole entry, looked up): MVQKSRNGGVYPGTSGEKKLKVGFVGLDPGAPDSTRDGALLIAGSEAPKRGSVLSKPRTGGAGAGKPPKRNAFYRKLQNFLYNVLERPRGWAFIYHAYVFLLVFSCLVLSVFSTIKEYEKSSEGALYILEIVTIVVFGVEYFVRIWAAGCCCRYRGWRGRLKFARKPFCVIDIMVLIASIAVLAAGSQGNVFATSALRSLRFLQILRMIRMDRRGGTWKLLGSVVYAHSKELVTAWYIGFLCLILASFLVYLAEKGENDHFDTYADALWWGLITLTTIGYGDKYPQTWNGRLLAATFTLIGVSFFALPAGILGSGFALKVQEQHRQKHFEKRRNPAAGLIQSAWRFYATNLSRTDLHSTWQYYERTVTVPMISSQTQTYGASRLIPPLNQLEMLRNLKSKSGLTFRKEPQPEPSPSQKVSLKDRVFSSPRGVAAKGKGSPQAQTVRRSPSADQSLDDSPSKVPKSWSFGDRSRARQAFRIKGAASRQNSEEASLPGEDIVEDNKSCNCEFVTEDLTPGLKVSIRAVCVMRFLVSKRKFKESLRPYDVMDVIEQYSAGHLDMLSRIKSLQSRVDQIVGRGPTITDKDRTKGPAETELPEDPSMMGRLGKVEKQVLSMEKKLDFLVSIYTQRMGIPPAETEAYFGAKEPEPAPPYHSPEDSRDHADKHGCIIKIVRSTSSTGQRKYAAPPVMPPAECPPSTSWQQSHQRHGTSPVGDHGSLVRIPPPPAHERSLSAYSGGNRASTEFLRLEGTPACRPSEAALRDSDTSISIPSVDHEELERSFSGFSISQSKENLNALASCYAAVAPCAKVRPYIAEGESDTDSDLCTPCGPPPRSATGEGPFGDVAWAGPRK
KCNQ2 enhance baseline – second read-out of KCNQ2 enhance, no call of its own (marks repeat the call); B-score; compound at 10 µM; measured here: initial fluorescence intensity artifact check;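 brightness before thallium and not channel activity; 0 = typical well and far values either way flag optical interference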
* = called active by the depositor; & = joins results of further samples. A portion of the library; count on the stated rates, not on these rows.

SMILES	KCNQ2 enhance	KCNQ2 enhance baseline
Cc1ccc(S(=O)(=O)N(CC(=O)NC2CCCC2)c2cccc(C)c2)cc1	0.71	-1.6
CC(C)(C)c1cc(N)on1	0.1	0.54
CCN1CCN(c2ccc(NC(=O)c3cccc(F)c3)cc2Cl)CC1	0.52	0.1
CSCCC(=O)N1C(C)CCCC1C(=O)O (centres undefined)	0.49	-0.01
COc1ccc(NC(=O)CN2C(=O)C(c3ccccc3)=NC23CCCCCC3)cc1OC	0.13	-0.37
CC(C)(C)NC(=O)NC(=O)COC(=O)c1cccc(OC(F)F)c1	1.3	1.3
CC(=O)CSc1ncnc2sc3c(c12)CCC3	0.02	-0.58
Cc1nnc(SCCn2c(N3CCCCC3)nc3c2c(=O)n(C)c(=O)n3C)s1	0.11	1.5
Cc1ccc(S(=O)(=O)CCC(=O)Nc2cc(Cl)ccc2-n2cncn2)cc1	0.68	-0.86
COc1ccccc1Sc1ccccc1/C=N/NC(N)=O	0.51	1.1
OCc1cn(-c2ccccc2)nc1-c1ccco1	1.7	0.26
COc1ccc(CN2CCC(n3nccc3NC(=O)c3ccc4c(c3)OCO4)CC2)cc1C	0.46	0.02
COc1cccc(CC2(CO)CCCN(C(=O)c3cc[n+]([O-])cc3)C2)c1 (centres undefined)	3	-0.4
COc1ccc(-n2nc(C(=O)NCC(=O)NC(C)C)c3ccccc3c2=O)cc1OC	1	-2
C#CCOC(=O)c1ccccc1C(=O)O	1.6	0.04
COc1cc(OC)c(OC)cc1CN1CCC(O)CC1	2.2	1.9
CC(C)OC(=O)C1C2C=CC3(CN(Cc4cccs4)C(=O)C13)O2 (centres undefined)	0.46	-0.85
CCc1cc(C=C(Cl)Cl)oc(=O)c1C	0.02	0.72
Cc1ccc2nc(C)cc(N/N=C/c3ccc(F)cc3)c2c1	0.91	-1.3
CC(C)(CSc1ncccn1)NS(=O)(=O)c1ccccc1	1.3	-1.3
COc1ccc(-c2nc(CN3CCC(C(=O)NC4CCN(Cc5ccccc5)CC4)CC3)c(C)o2)cc1OC	1.8	1.7
O=C(Nc1ccc(S(=O)(=O)NC2=NCCCCC2)cc1)c1cc(S(=O)(=O)N2CCOCC2)ccc1F	0.54	-0.88
Oc1ccccc1-n1nc2ccc3nonc3c2n1	0.28	1
N=C(N)c1ccccc1	2.4&2	-0.13&1.5
Cc1ccc(N2C(=O)c3sc4nnc(C)c(=O)n4c3C2=O)cc1	0.8	-0.82
O=C(NCCCN1CCOCC1)c1nn(-c2ccccc2)c(=O)c2ccccc12	0.75	-1
COc1ccc(NC(=O)CC(C)C)c([N+](=O)[O-])c1	0.69	1.6
O=C(CCN1C(=O)/C(=C/c2ccc(F)cc2)SC1=S)NC1CCS(=O)(=O)C1 (centres undefined)	1.7	-0.65
Cc1cc(OC(F)F)ccc1NC(=S)NC1CCCC1	0.37	-1.2
CCOCCCNC(=O)c1c[nH]c2cc(OC)ccc2c1=O	1.2	0.3
Cc1[nH]n(-c2ccccc2)c(=O)c1CCO	0.23	0.41
CCOC(=O)C1CCCN(c2nc3ccccc3nc2C(C#N)C(=O)OC(C)COC)C1 (centres undefined)	0.06	-0.32
CC(C)Nc1nc(NC(C)C)nc(Nn2cnnc2)n1	0.44	-2.8
CCOc1ccc(/C=C\C(C)=N\O)cc1	0.61	-0.57
CCOc1cc(C(=O)NC(=S)Nn2cnnc2)cc(OCC)c1OCC	0.15	-0.99
COc1ccc(S(=O)(=O)Nc2c(C)ccc3nsnc23)cc1OC	0.23	0.37
COc1ccc(OCC(=O)NNC(=O)C(=O)Nc2ccc(C)cc2)cc1	4	0.66
Cc1ccc2occ(C(c3nnnn3C3CCCC3)N3CCN(C(=O)c4ccco4)CC3)c(=O)c2c1 (centres undefined)	0.01	0.54
Cc1cc(C)n2nc(C(=O)Nc3ccc4c(c3)OCO4)nc2n1	0.07	-0.21
CCCCN(C)C(=O)c1cn(CC)c2ccc(S(=O)(=O)N(C)C)cc2c1=O	0.42	-0.89
CC(C)(C)NC(=O)C(c1cccs1)N(C(=O)c1csnn1)c1cccc(F)c1 (centres undefined)	0.04	1.2
Cc1ccc(S(=O)(=O)N2CCN(C(=O)CCn3nc(C)c(C)c3C)CC2)cc1C	0.34	-1.6
Cc1ccc(-c2nc(NC(=O)CSc3ccc4ccccc4n3)ns2)cc1	0.69	-2
O=C(O)CCc1nc2ccccc2c(=O)[nH]1	0.18	0.98
Cc1cccc(N=C2NC(=O)/C(=C/c3cccnc3)S2)c1C	0.81	0.17
CCOc1ccc(NS(=O)(=O)c2ccc(C(=O)NNC(=O)c3ccccc3O)cc2)cc1	0.62	-0.49
CCCOc1ccc(/C=N/Nc2ccccc2[N+](=O)[O-])c(OCCC)c1	0.73	0.22
Cc1ccnc(SCC(=O)N2CCCc3ccccc32)n1	1.7	-0.7
O=C(CN(Cc1ccco1)C(=O)CNS(=O)(=O)c1ccc(F)cc1)NCc1ccc(F)cc1	0.57	1.5
CCc1cccc(CC)c1N(COC)C(=O)Cn1ccccc1=N	0.3	-0.96
Cn1c(=O)oc2cc(S(=O)(=O)N3CCCC(C(=O)Nc4ccccn4)C3)ccc21 (centres undefined)	0.53	0.12
O=C(Nc1ccc2nc3n(c(=O)c2c1)CCCC3)c1cccc(F)c1	2.7	-0.02
COc1ccccc1CNC(=O)CCCC(=O)n1ncc2cc(C)ccc21	1	0.24
CN(C)C(=O)c1sccc1Oc1ccc(F)cc1[N+](=O)[O-]	0.57	-0.25
Cc1cc2c(NC(=O)Nc3ccc(F)cc3)cccc2nn1	0.04	0.11
Cc1occc1C(=O)Nc1sc2c(c1C(N)=O)CCCCC2	1.2	0.22
COc1ccc(C2CC(=O)c3cnc(NC(=O)c4ccccc4)nc3C2)c(OC)c1 (centres undefined)	1.1	-1.6
COc1cc(C(=O)O)c2ccccc2n1	1.9	-0.4
Cc1ccc(S(=O)(=O)/N=C(/Sc2ccccc2C(=O)O)c2ccccc2)cc1	0.34	-0.95
CCn1ncc(Cl)c1C(=O)Nc1ccc2c(c1)CCC2	0.01	-3
(listing goes on)
SMILES	KCNQ2 enhance	KCNQ2 enhance baseline
COc1ccccc1OCC(=O)NCC(c1cccs1)N1CCOCC1 (centres undefined)	1.8	-0.91
CCCCNC(=NCc1cccc(C(F)(F)F)c1)Nc1ccccc1	1.7	0.62
CSCC[C@H](NC(=O)Nc1ccccc1C)C(=O)O	0.39	-0.15
CCCCCn1nc(C(=O)OCC(=O)c2c(N)n(C)c(=O)n(C)c2=O)c2ccccc2c1=O	0.23	0.52
Cc1ccc(CNC(=O)Cn2c(=O)oc3ccccc32)o1	0.87	0.7
COc1ccc(/C=C2\CCc3c2nc2ccccc2c3C(=O)O)cc1OC	0.36	-0.87
O=c1[nH]c(NNC(=S)NC2CCCCC2)nc2c1C1(CCCC1)Cc1ccccc1-2	4.7	0.21
CO/N=C/NC(=O)NOCc1ccc(Cl)cc1Cl	0.99	0.05
Cc1ccc(NC(=O)NNC(=O)c2ccccc2)cc1	0.24	0.36
CC(=O)c1ccccc1OC(=O)CCN1C(=O)c2ccccc2C1=O	1.8	-1.4
Cn1nc(-c2ccc3c(c2)OCCO3)c2ccccc2c1=O	1.2	0.21
Cc1cc(=O)[nH]c2nnc(-c3ccc(Br)cc3)n12	0.42	-0.21
C(#Cc1ccccc1)CN1CCCCC1	6.3*	-0.23*
Cc1ccnc(NS(=O)(=O)c2cnc(Cl)c(Br)c2)c1	1	-0.31
Cc1cccc(NC(=O)Cn2c(=O)n3nc(CCn4nc(C)cc4C)nc3c3ccccc32)c1	2	-1.5

Sorted by molar mass (smallest number first): part of the list above
SMILES	KCNQ2 enhance	KCNQ2 enhance baseline
C(#Cc1ccccc1)CN1CCCCC1	6.3*	-0.23*
COc1cc(C(=O)O)c2ccccc2n1	1.9	-0.4
Cc1ccc(NC(=O)NNC(=O)c2ccccc2)cc1	0.24	0.36
CSCC[C@H](NC(=O)Nc1ccccc1C)C(=O)O	0.39	-0.15
Cc1ccc(CNC(=O)Cn2c(=O)oc3ccccc32)o1	0.87	0.7
CCn1ncc(Cl)c1C(=O)Nc1ccc2c(c1)CCC2	0.01	-3
CO/N=C/NC(=O)NOCc1ccc(Cl)cc1Cl	0.99	0.05
Cn1nc(-c2ccc3c(c2)OCCO3)c2ccccc2c1=O	1.2	0.21
Cc1cc2c(NC(=O)Nc3ccc(F)cc3)cccc2nn1	0.04	0.11
Cc1ccnc(SCC(=O)N2CCCc3ccccc32)n1	1.7	-0.7
Cc1cc(=O)[nH]c2nnc(-c3ccc(Br)cc3)n12	0.42	-0.21
Cc1cccc(N=C2NC(=O)/C(=C/c3cccnc3)S2)c1C	0.81	0.17
CN(C)C(=O)c1sccc1Oc1ccc(F)cc1[N+](=O)[O-]	0.57	-0.25
CCc1cccc(CC)c1N(COC)C(=O)Cn1ccccc1=N	0.3	-0.96
O=C(Nc1ccc2nc3n(c(=O)c2c1)CCCC3)c1cccc(F)c1	2.7	-0.02
CCCCNC(=NCc1cccc(C(F)(F)F)c1)Nc1ccccc1	1.7	0.62
CCCOc1ccc(/C=N/Nc2ccccc2[N+](=O)[O-])c(OCCC)c1	0.73	0.22
COc1ccc(/C=C2\CCc3c2nc2ccccc2c3C(=O)O)cc1OC	0.36	-0.87
Cc1ccnc(NS(=O)(=O)c2cnc(Cl)c(Br)c2)c1	1	-0.31
COc1ccccc1CNC(=O)CCCC(=O)n1ncc2cc(C)ccc21	1	0.24
COc1ccccc1OCC(=O)NCC(c1cccs1)N1CCOCC1 (centres undefined)	1.8	-0.91
COc1ccc(C2CC(=O)c3cnc(NC(=O)c4ccccc4)nc3C2)c(OC)c1 (centres undefined)	1.1	-1.6
Cc1ccc(S(=O)(=O)/N=C(/Sc2ccccc2C(=O)O)c2ccccc2)cc1	0.34	-0.95
Cn1c(=O)oc2cc(S(=O)(=O)N3CCCC(C(=O)Nc4ccccn4)C3)ccc21 (centres undefined)	0.53	0.12
O=c1[nH]c(NNC(=S)NC2CCCCC2)nc2c1C1(CCCC1)Cc1ccccc1-2	4.7	0.21
CCCCCn1nc(C(=O)OCC(=O)c2c(N)n(C)c(=O)n(C)c2=O)c2ccccc2c1=O	0.23	0.52
Cc1cccc(NC(=O)Cn2c(=O)n3nc(CCn4nc(C)cc4C)nc3c3ccccc32)c1	2	-1.5
O=C(CN(Cc1ccco1)C(=O)CNS(=O)(=O)c1ccc(F)cc1)NCc1ccc(F)cc1	0.57	1.5

Next section.
SMILES	KCNQ2 enhance	KCNQ2 enhance baseline
Cn1ncc([N+](=O)[O-])c1C(=O)Nc1cccc2ccccc12	1.7	-0.3
CC(C)c1csc(CN2CCN(CCc3ccccc3)C(CCO)C2)n1 (centres undefined)	0.91	-0.4
CCc1ccc(OCC(=O)O/N=C(\N)c2ccccn2)cc1	0.2	-0.55
CC(=O)c1cccc(NC(=O)NCc2ccc3c(c2)OCO3)c1	2.1	-0.91
O=C1CCc2cc(S(=O)(=O)NC(Cc3ccccc3)C(=O)NC3CCCCC3)ccc2N1 (centres undefined)	2.6	0.74
COc1ccc(C(=O)NCC(=O)NCC(=O)OCC(=O)C(C)(C)C)cc1	0.61	0.89
CSc1nc2cc3c(cc2n1C(=O)c1ccc(C)cc1)OCCO3	0.01	-0.38
C=CCNC(=S)NCC=C	0.87	0.03
CCOC(=O)c1c(C)n(C)c2cc(-c3ccc(C)cc3)c(O)cc12	0.65	2.1
CCOc1ccc(NC(=O)CS(=O)CC(=O)Nc2cccnc2)cc1 (centres undefined)	0.73	0.55
CC(C)CC1COC(=O)N1 (centres undefined)	0.03	0.09
Cc1noc(NS(=O)(=O)c2ccc(NC(=O)c3oc4ccc(Cl)cc4c3C)cc2)c1C	3	-1.2
Cc1ccccc1Cn1c2ccccc2c2cn[nH]c(=O)c21	0.93	2.4
CC(C)(C)c1csc(Sc2ncccc2[N+](=O)[O-])n1	0.34	5.1
Nc1nc(Nc2ccccc2)nc2c1ncn2[C@@H]1O[C@H](CO)[C@@H](O)[C@H]1O	3	-0.03
COC(=O)c1ccc(-c2nc(O)c(C)s2)cc1	0.39	-1.3
O=C(NNc1nc2c(F)cccc2s1)c1cc(=O)c2ccccc2o1	0.78	0.37
CC1(C)CC(=O)C=C(NNC(=O)c2cccnc2)C1	1.2	1.6
Cc1ccc(S(=O)(=O)N(C#N)c2nc(C)cc(C)n2)cc1	1.2	1.2
CC1CCCCC1NCC(=O)NCc1ccc(F)cc1 (centres undefined)	1.7	-0.34
COC(=O)[C@]12C(=O)C(C)=C(O)[C@@]1(C)C(C)=CC1[C@@]34CC[C@@H](OC(C)=O)C(C)(C)C3C(C[C@]12C)OC4=O (some centres undefined)	0.87	-0.11
CNC(=O)C(=O)NCC(c1cccs1)S(=O)(=O)c1ccc(F)cc1 (centres undefined)	3.2	0.08
CNS(=O)(=O)c1cc(OC)c(OC)cc1CC(=O)OC	0.82	-0.01
O=C(OCc1nnc(-c2ccccc2)o1)c1cc(S(=O)(=O)N2CCOCC2)ccc1F	2.1	-1.3
COc1ccc(CC(=O)NCc2ccccc2Cl)cc1S(=O)(=O)N1CCOCC1	1.3	0.55
Nc1ccc(N=Nc2ccccc2O)c(N)c1	0.67	-4.3
O=C(CSc1nc(-c2ccccc2)cc(C(F)(F)F)n1)NCc1cccs1	0.91	0.56
